PINK1 modulator: A Quantitative High throughput Screen to Identify Chemical Modulators of PINK1 Expression; Potency, µM (highest dose often 76.6 µM), for inactives: at the highest dose activation (PINK1 increase), actives largely listed as activators; AID 624263, 2012; PINK1 immunofluorescence, high-content cytometry, 24 h; 0.2% of 410,000 active; active = well fitted activation curve with a large enough effect; inconclusive = small, poorly fitted or top-dose-only effect; inactive = flat fitted curve, though single readings scatter; cell line not stated here;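 further: potency means the concentration at half of the fitted maximal effect; % of control where 0% means no effect; nearly all actives have a fitted effect of over 65% in size; a mitochondrial uncoupler was the plate control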
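Measures PINK1 amount and localization on or inside mitochondria by immunofluorescence. Stable cells get compounds at 5 concentrations for 24 hours before fixation and staining; CCCP controls included.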
ClpP mod: qHTS Assay for Activators of ClpP; ATP-dependent Clp protease proteolytic subunit (Bacillus subtilis (strain 168)), P80244; purified B. subtilis ClpP, FRET peptide cleavage, 20 min; Potency, µM (highest dose often 57.5 µM), without a hit: at the highest dose activity change, negative = active; 1.9% of 340,000 active; active = well fitted falling curve with a large enough effect; inconclusive = small, poorly fitted or top-dose-only effect; inactive = no such curve, though single readings can be large or run the other way; further: potency means the concentration at half of the fitted maximal effect; the source files actives as falling curves though it sought activators and does not explain the sign; nearly all actives have a fitted effect of over 65% in size; many hits overshoot -100%
Target sequence (P80244 whole entry, looked up): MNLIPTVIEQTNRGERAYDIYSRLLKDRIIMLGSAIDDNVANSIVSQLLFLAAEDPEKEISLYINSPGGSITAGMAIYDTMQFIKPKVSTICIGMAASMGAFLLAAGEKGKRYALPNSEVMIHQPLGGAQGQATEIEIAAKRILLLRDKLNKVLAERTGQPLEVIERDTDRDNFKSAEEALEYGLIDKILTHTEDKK
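Purified B. subtilis ClpP, 10 microg/mL final in Tris/HCl pH8 with KCl, BSA, glycerol and Tween-20, cleaved an Abz/nitrotyrosine-quenched decapeptide. Fluorescence (ex 320, em 430) was read at 0 and 20 min at room temperature. Delta was normalized to 5.8 microM ADEP and DMSO/no-enzyme controls.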
gsp ag: qHTS for Agonist of gsp, the Etiologic Mutation Responsible for Fibrous Dysplasia/McCune-Albright Syndrome: qHTS; 0.13% of 340,000 active; gsp mutant cells, cAMP HTRF, 30 min; control for the full effect not named in the record; Potency, µM (top dose mostly 76.9 µM), for inactives: top-dose activation (cAMP increase), hits mostly activators; active = well fitted activation curve with a large enough effect; inconclusive = small, poorly fitted or top-dose-only effect, or another doubt; inactive = no such curve, though single readings can be large or run the other way; cell line not stated here;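 further: phosphodiesterase inhibitor Ro 20-1724 added with compounds to block cAMP breakdown; potency means the concentration at half of the fitted maximal effect; nearly all actives have a fitted effect of over 60% in size; about a fifth of the inactives were tested at one dose only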
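Cells stably selected in G418 were plated at 2000/well, grown 16-24 hr, then given compounds in DMSO with the PDE inhibitor […] (300 uM solution added) for 30 min at 37C; cAMP was read by HTRF.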
Menin-MLL FL inh: qHTS Assay for Inhibitors Targeting the Menin-MLL Interaction in MLL Related Leukemias: Competition With Fluorescein Labeled MLL-derived Peptide. Fluorescence polarization, fluorescein-MLL peptide displacement from menin. FP activity change, % at 61.4 µM. 290,000 tested, under 10 active. AID 1766, 2009; inconclusive = falling polarisation curve, or a change in total fluorescence; inactive = total fluorescence flat and polarisation flat or rising; no compound was filed as active; the % refers to the polarisation; negative = inhibition;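 further: % of control where 0% means no effect; inhibitors lower the polarisation; unlabelled MLL peptide was the positive control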
gsp antag: qHTS for Antagonists of gsp, the Etiologic Mutation Responsible for Fibrous Dysplasia/McCune-Albright Syndrome: qHTS; Potency, µM (series often up to 76.9 µM), for the others: at the top dose activity change, negative = inhibition, most hits filed as inhibitors; 0.4% of 340,000 active; gsp-mutant cells, cAMP HTRF, 30 min; control for the full effect not named in the record; active = falling curve of any shape with a large fitted effect; inconclusive = falling curve, mostly with a smaller effect; inactive = flat or rising curve; cell line not stated here;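 further: intracellular cAMP measured with PDE inhibitor Ro 20-1724 present during compound exposure; potency means the concentration at half of the fitted maximal effect; on the % scale 0 is the no-effect control and ±100 the full control effect; nearly all actives have a fitted effect of over 65% in size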
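HTRF cAMP measurement after 30 min RT detection following 30 min, 37C compound treatment alongside […] (added as 300 uM solution) in G418-selected cells seeded at 2000/well and grown 16–24 h.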
Sfp PPTase inh: qHTS Assay for Inhibitors of Bacillus subtilis Sfp phosphopantetheinyl transferase (PPTase); 4'-phosphopantetheinyl transferase ffp (Bacillus subtilis), Q9F4F7; Biochemical Sfp PPTase activity, qHTS; Potency, µM, for inactives: max response, negative = inhibition, actives largely listed as inhibitors; 3.5% of 310,000 active; active means well fitted inhibition curve with a large enough effect; inconclusive means small, poorly fitted or top-dose-only effect, or another doubt; inactive means no such curve, though single readings can be large or run the other way;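 further: the enzyme is Sfp with the accession as filed and its product quenches rhodamine fluorescence; potency means the concentration at half of the fitted maximal effect; 0% = enzyme reaction without inhibitor and -100% = no enzyme wells; top concentration of the series not given in the record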
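Buffer: 50 mM Hepes-Na pH 7.6, 10 mM MgCl2, 0.01% Nonidet P-40, 0.01% BSA. Enzyme 15 nM, pre-exposed to compound 15 min; substrates then added and fluorescence change tracked over 30 min.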
D2 agonist: Beta-Arrestin HTS for Positive Allosteric Modulators of the Human D2 Dopamine Receptor: Agonists | DiscoveRx PathHunter D2 beta-arrestin, luminescence, 90 min; 100% = 57 uM dopamine signal | D(2) dopamine receptor (Homo sapiens), P14416 | activation, % (concentration not given with the values) | 0.084% of 360,000 active; in the data active = activation above about 40%; inconclusive = about 15% to 40%; inactive = below about 15%; further: compound concentration not given in the record; the text of the record calls up to 30% inactive
Target sequence (P14416 whole entry, looked up): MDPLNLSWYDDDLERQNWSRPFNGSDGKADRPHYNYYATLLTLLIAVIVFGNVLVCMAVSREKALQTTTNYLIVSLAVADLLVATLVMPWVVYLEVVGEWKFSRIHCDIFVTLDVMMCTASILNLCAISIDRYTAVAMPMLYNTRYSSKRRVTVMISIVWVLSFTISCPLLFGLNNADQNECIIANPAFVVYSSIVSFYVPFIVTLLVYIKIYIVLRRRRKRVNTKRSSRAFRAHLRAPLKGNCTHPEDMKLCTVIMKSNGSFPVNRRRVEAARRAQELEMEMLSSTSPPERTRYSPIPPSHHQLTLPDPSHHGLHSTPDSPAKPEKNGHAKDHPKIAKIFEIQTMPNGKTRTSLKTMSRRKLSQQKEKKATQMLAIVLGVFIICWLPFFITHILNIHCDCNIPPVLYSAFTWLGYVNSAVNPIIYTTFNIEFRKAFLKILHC
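Agonist mode: compounds alone added to overnight-plated D2 PathHunter cells for 90 min at 37 C, with 57 uM final dopamine (EC100) defining full response. Beta-arrestin recruitment detected by chemiluminescent reagent, read after 1 h at ambient temperature.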
* hit, by the source's call; [ ] = another dose, or the depositor's remark.

How did COc1ccc(-c2noc(CCC(=O)N3CCN(c4ccccc4Cl)CC3)n2)cc1 do in these assays?
PINK1 modulator: -1.5%; ClpP mod: 0.5%; gsp antag: inconclusive; D2 agonist: 0.7

Results for O=C1C(=O)N(C/C=C/c2ccccc2)c2ccccc21 ?
PINK1 modulator: 0.0%; ClpP mod: 4.6%; gsp ag: inconclusive; Menin-MLL FL inh: -9.8; gsp antag: 9.4%; Sfp PPTase inh: 8.2%; D2 agonist: -16.6

What do the screens show for `O=C(CSc1nnc(-c2ccco2)o1)N1c2ccccc2CCc2ccccc21`?
ClpP mod: 1.3%; gsp ag: -24.6%; Menin-MLL FL inh: 3.0; gsp antag: -27.3%; Sfp PPTase inh: 3.3%; D2 agonist: -1.4

How did COC(=O)c1ccc2c(c1)NC(=O)C(N1CCOCC1)S2 (stereo unspecified) do in these assays?
PINK1 modulator: -3.2%[38.3 µM]; ClpP mod: -1.9%; gsp ag: 0.1%; Menin-MLL FL inh: -0.7; gsp antag: 11.3%; Sfp PPTase inh: 12.9%; D2 agonist: 2.4

Results for Nc1ncn(-c2ncc(C(F)(F)F)cc2Cl)n1 ?
PINK1 modulator: -1.3%; gsp ag: -1.5%; Menin-MLL FL inh: 1.3; gsp antag: 6.8%; Sfp PPTase inh: 21.1%; D2 agonist: 0.0

How did C=CCn1c(SCC(=O)NCC2CCCO2)nnc1-c1ccccc1 (stereo unspecified) do in these assays?
PINK1 modulator: 0.1%; ClpP mod: -1.2%; gsp ag: -15.2%; Menin-MLL FL inh: 2.4; gsp antag: 4.1%; Sfp PPTase inh: 16.1%; D2 agonist: 2.1

How did O=C(COC(=O)/C=C/c1ccccc1)NCCC1=CCCCC1 do in these assays?
PINK1 modulator: -0.6%; ClpP mod: 1.3%; gsp ag: 1.5%; Menin-MLL FL inh: 11.7; gsp antag: -0.7%; Sfp PPTase inh: 2.4%; D2 agonist: -5.0

What do the screens show for `O=C1c2cccc3cccc(c23)C(=O)N1CCc1ccccc1`?
PINK1 modulator: 4.3%; gsp ag: 17.0%; Menin-MLL FL inh: 1.6; gsp antag: -10.9%; Sfp PPTase inh: -5.9%; D2 agonist: 0.8

Results for O=C(NCCc1ccccc1)c1cccc(S(=O)(=O)N2CCCCC2)c1 ?
PINK1 modulator: -0.4%; ClpP mod: -4.5%; gsp ag: 8.8%; Menin-MLL FL inh: 2.9; gsp antag: 5.7%; Sfp PPTase inh: 10.1%; D2 agonist: -1.6

What do the screens show for `O=C(COc1ccccc1F)N/N=C1\CCCc2ccccc21`?
PINK1 modulator: 2.6%; ClpP mod: -0.5%; gsp ag: -2.2%[15.4 µM]; Menin-MLL FL inh: 1.1; gsp antag: -0.1%; Sfp PPTase inh: 7.6%; D2 agonist: 4.6

Results for COc1ccc(CNC(=O)CN2CCN(C(c3ccccc3)c3ccccc3)CC2)cc1 ?
PINK1 modulator: inconclusive; gsp ag: 8.7%; Menin-MLL FL inh: 4.7; gsp antag: -17.1%; Sfp PPTase inh: -26.5%; D2 agonist: -3.3

What do the screens show for `CC1=C(C(=O)Nc2ccc(F)cc2)C(c2ccncc2)C2=C(CCCC2=O)N1` (stereo unspecified)?
PINK1 modulator: 1.3%; ClpP mod: inconclusive; gsp ag: 12.2%; Menin-MLL FL inh: -0.4; gsp antag: 2.6%; Sfp PPTase inh: 11.5%; D2 agonist: -0.9

Results for COc1ccc(C(C)NC(=S)NCc2ccc(F)cc2)cc1 (stereo unspecified) ?
PINK1 modulator: 1.3%; ClpP mod: -0.6%; gsp ag: 0.2%; Menin-MLL FL inh: 8.8; gsp antag: -4.0%; Sfp PPTase inh: 12.1%; D2 agonist: -5.2

What do the screens show for `C=CCOc1ccc(NC(=O)C2CC(=O)N(C(C)C)C2)cc1` (stereo unspecified)?
PINK1 modulator: 5.0%; ClpP mod: -5.1%; gsp ag: -39.6%[inhibitor]; Menin-MLL FL inh: 6.2; gsp antag: 3.3%; Sfp PPTase inh: inconclusive; D2 agonist: -2.1

Results for CCCC(C)C(=O)Nc1nc(C)c(-c2csc(Nc3cc(OC)ccc3OC)n2)s1 (stereo unspecified) ?
PINK1 modulator: 6.8%; ClpP mod: -12.9%; gsp ag: 4.1%; Menin-MLL FL inh: 2.1; gsp antag: -6.3%; Sfp PPTase inh: 15.6%; D2 agonist: -1.9

What do the screens show for `COc1cc(CN2CCCC(N3CCN(c4ccc(F)cc4)CC3)C2)ccc1F` (stereo unspecified)?
PINK1 modulator: 1.1%; ClpP mod: -1.4%; gsp ag: 20.6%; Menin-MLL FL inh: -0.4; gsp antag: 10.4%; Sfp PPTase inh: 2.1%; D2 agonist: -2.2

How did O=C(Cc1cccs1)NCCS(=O)(=O)N1CCN(c2ccccc2)CC1 do in these assays?
PINK1 modulator: 0.6%; ClpP mod: 1.1%; gsp ag: -115.3%[inhibitor]; D2 agonist: -0.8

What do the screens show for `Cc1cc(C)n2nc(C(=O)N3CCCC(CNS(=O)(=O)c4cccs4)C3)cc2n1` (stereo unspecified)?
PINK1 modulator: -0.6%; ClpP mod: 3.9%; gsp ag: inconclusive; Menin-MLL FL inh: 1.3; gsp antag: 8.1%; Sfp PPTase inh: 0.5%; D2 agonist: 0.3

How did COc1ccc(/C=N/NC(=O)CCn2cnc(-c3ccccc3)c2-c2ccccc2)cc1 do in these assays?
PINK1 modulator: -2.7%; ClpP mod: -0.8%; gsp ag: 3.2%; Menin-MLL FL inh: 10.1; gsp antag: inconclusive; Sfp PPTase inh: -10.1%; D2 agonist: -2.2

Results for COCCn1c(=O)c(-c2cccc(C#N)c2)nc2cnc(Oc3ccc(OC)cc3)nc21 ?
PINK1 modulator: 0.4%; Menin-MLL FL inh: -5.1; Sfp PPTase inh: -18.2%

Results for COc1ccc(C)cc1NC(=O)NC1CCCCCCC1 ?
PINK1 modulator: 2.0%; ClpP mod: 0.1%; gsp ag: -5.4%; gsp antag: -25.9%; Sfp PPTase inh: 5.2%; D2 agonist: -2.1

How did O=C(COc1ccc(S(=O)(=O)N2CCOCC2)cc1Cl)N1CCCC1 do in these assays?
PINK1 modulator: -0.8%; gsp ag: -26.7%; Menin-MLL FL inh: -4.3; gsp antag: -0.2%; Sfp PPTase inh: 15.9%; D2 agonist: 0.8

What do the screens show for `COC(=O)c1ccc2c(=O)[nH]c(COC(=O)c3c(-c4ccccc4)noc3C)nc2c1`?
PINK1 modulator: -1.5%; gsp ag: 5.9%[15.4 µM]; gsp antag: -18.7%; D2 agonist: -0.7

How did Cc1ccc(CN(C)C(=O)c2ccc3c(c2)NC(=O)CS3)o1 do in these assays?
PINK1 modulator: 0.0%; ClpP mod: -5.5%; gsp ag: 18.9%; Menin-MLL FL inh: -1.8; gsp antag: 2.1%; Sfp PPTase inh: 31.6µM*; D2 agonist: -6.5

What do the screens show for `Cc1[nH]nc(C(F)(F)F)c1N=NN1CCOCC1`?
PINK1 modulator: -1.2%; ClpP mod: -0.8%; gsp ag: 28.8%; gsp antag: -11.6%; D2 agonist: inconclusive

What do the screens show for `COc1ccc(S(=O)(=O)N(CC(=O)NC2CCCCC2)c2ccc(F)cc2)cc1`?
PINK1 modulator: 13.4%; ClpP mod: -0.9%; gsp ag: 19.6%[15.4 µM]; gsp antag: 7.0%; Sfp PPTase inh: 11.9%; D2 agonist: 0.3

Results for O=C(CSc1cn(CCNC(=O)c2ccccc2F)c2ccccc12)NCC1CCCO1 (stereo unspecified) ?
PINK1 modulator: 1.8%; ClpP mod: -1.1%; gsp ag: 16.0%; Menin-MLL FL inh: -0.1; gsp antag: -9.7%; Sfp PPTase inh: 1.5%; D2 agonist: 3.0

What do the screens show for `O=S(=O)(c1ccc(NC(=S)N2CCOCC2)cc1)N1CCCCC1`?
PINK1 modulator: 0.7%; ClpP mod: 0.4%; gsp ag: 10.7%; D2 agonist: -2.6

How did Cc1nnc(NC(=O)c2cc3n(n2)C(C(F)(F)F)CC(C2CC2)N3)s1 (stereo unspecified) do in these assays?
PINK1 modulator: 2.3%; ClpP mod: -1.1%; gsp ag: 3.7%; Menin-MLL FL inh: 0.2; gsp antag: -4.0%; Sfp PPTase inh: 10.6%; D2 agonist: -1.5

How did Cc1ccc(OCC(=O)N/N=C\c2ccncc2)c(C)c1 do in these assays?
PINK1 modulator: 2.7%; ClpP mod: -2.0%; gsp ag: -35.2%; Menin-MLL FL inh: 3.3; gsp antag: -7.8%; Sfp PPTase inh: 14.8%; D2 agonist: -2.6

How did O=C(Nc1ccc2ncccc2c1)c1ccccc1Br do in these assays?
PINK1 modulator: 1.0%; ClpP mod: 1.0%; gsp ag: -2.1%[15.4 µM]; Menin-MLL FL inh: 0.8; gsp antag: -5.2%; Sfp PPTase inh: -9.8%; D2 agonist: -2.3

How did O=C(Nc1ccncc1)Nc1ccccn1 do in these assays?
PINK1 modulator: 0.7%; ClpP mod: -0.8%; gsp ag: 3.1%; Menin-MLL FL inh: -2.7; gsp antag: 6.6%; Sfp PPTase inh: 14.3%; D2 agonist: -0.7

How did CN(C(=O)c1ccc(NC(=O)Cc2ccc(NC(=O)C3CCCN(C(=O)C4CC4)C3)cc2)cc1)C1CCCC1 (stereo unspecified) do in these assays?
PINK1 modulator: -1.1%; ClpP mod: -0.3%; gsp antag: 1.2%; D2 agonist: 2.7

Results for COCCn1c(=O)c(-c2cn(C)c3ccccc23)nc2cncnc21 ?
PINK1 modulator: -0.9%; Menin-MLL FL inh: inconclusive; Sfp PPTase inh: 10.0%
